From PubChem
KCNQ2 pot = enhances the rat KCNQ2 potassium channel; O88943; CHO-K1 KCNQ2, FluxOR thallium flux fluorescence; stronger effect = higher value; B-score at 10 µM; hit rate 0.54% among 310,000;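 active means fluorescence ratio B-score at least 3 SD of library B-scores, with initial fluorescence B-score within 3 SD, cut at about 5.3 in these data; same plate scores as AID 2156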;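 further: B-score of peak minus minimum over baseline fluorescence ratio after K+ and Tl+ stimulus; positive B-score means potentiation of KCNQ2 with more thallium influx and brighter signal; only the inactives scoring about 0 or higher are listed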
Target sequence (O88943 whole entry, looked up): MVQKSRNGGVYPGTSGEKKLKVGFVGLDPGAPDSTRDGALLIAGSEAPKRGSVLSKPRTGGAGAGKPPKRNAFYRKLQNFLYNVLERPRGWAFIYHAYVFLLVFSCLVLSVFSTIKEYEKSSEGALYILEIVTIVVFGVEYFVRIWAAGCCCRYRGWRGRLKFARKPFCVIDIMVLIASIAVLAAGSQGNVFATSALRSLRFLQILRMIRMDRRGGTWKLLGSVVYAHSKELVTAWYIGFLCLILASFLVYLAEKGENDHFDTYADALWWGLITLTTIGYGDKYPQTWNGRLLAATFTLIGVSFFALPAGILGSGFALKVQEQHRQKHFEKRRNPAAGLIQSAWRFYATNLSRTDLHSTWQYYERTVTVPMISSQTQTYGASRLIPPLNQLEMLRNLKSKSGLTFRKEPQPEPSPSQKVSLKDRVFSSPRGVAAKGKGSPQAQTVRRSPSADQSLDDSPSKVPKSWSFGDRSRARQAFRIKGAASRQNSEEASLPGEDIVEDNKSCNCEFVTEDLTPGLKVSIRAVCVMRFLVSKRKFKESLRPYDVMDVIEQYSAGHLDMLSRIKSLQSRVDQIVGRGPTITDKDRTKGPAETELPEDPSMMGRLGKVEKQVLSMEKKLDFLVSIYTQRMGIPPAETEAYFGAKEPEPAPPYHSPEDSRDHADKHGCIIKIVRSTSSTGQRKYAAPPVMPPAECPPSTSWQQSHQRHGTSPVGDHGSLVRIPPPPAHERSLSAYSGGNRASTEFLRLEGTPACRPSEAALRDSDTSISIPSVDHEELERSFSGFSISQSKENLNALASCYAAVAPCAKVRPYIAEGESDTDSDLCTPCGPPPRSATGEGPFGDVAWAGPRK
KCNQ2 pot baseline = also measured in KCNQ2 pot; calls as there; B-score; compound at 10 µM; measured here: initial fluorescence intensity artifact check;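 brightness before thallium and not channel activity; 0 = typical well and far values either way flag optical interference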
* marks the source's active call; other numbers are inactive results. An excerpt; count on the stated rates, not on these rows.

| KCNQ2 pot | KCNQ2 pot baseline | smiles |
| --- | --- | --- |
| 0.38 | 0.65 | Cc1cc(Cl)n2nc(C)c(-c3ccc(Cl)cc3)c2n1 |
| 0.05 | -2.3 | Cc1ccc(C)c(NC(=O)c2cc[n+](C)cc2)c1 |
| 1.4 | 0.49 | Cc1nc2c(C(=O)N3CCN(C)CC3)cnn2c(C)c1Cc1ccc(Cl)cc1 |
| 0.08 | -0.84 | Cc1nnc(N/N=C/c2ccc([N+](=O)[O-])cc2)n1N |
| 0.71 | 0.92 | O=C(/C=C\c1ccccc1)NCC(=O)N/N=C/c1ccc(O)cc1O |
| 0.04 | 0 | CCc1ccc(N2C(=O)C3ON(c4ccccc4)C(c4ccco4)C3C2=O)cc1 (stereo unspecified) |
| 1.27 | 0.48 | OC(c1ccc2c(c1)OCO2)c1nccc2ccccc12 (stereo unspecified) |
| 0.29 | 2.13 | CCN(CC)CCN1C(=O)C2C(C(=O)Nc3ccc(C(C)C)cc3)C3C=CC2(O3)C1C(=O)NC1CCCCC1 (stereo unspecified) |
| 0.13 | 0.88 | COc1ccccc1NC(=O)c1ccc2nsnc2c1 |
| 0.01 | -0.09 | CC1Sc2ccc(S(=O)(=O)CCC(=O)Nc3ccc(C(C)C)cc3)cc2NC1=O (stereo unspecified) |
| 0.04 | 0.2 | O=C(O)c1ccc2cc(-c3ccccc3)[nH]c2c1 |
| 0.13 | -1.6 | Cc1cc(=O)[nH]c(SCC(=O)N2CCN(S(=O)(=O)c3ccccc3)C2)n1 |
| 1.08 | 1.36 | COc1ccc(/C=C2/C(=O)N(c3ccccc3)N=C2C)cc1Br |
| 0.66 | 0.27 | Cc1cccc(C(=O)N2CCN(S(=O)(=O)N3CCCCCC3)CC2)c1 |
| 0.01 | -0.17 | O=C(CN1CCN(S(=O)(=O)/C=C/c2ccccc2)CC1)NCC(F)(F)F |
| 2.96 | 0.66 | Cc1ccc(-c2nc(-c3ccccc3)no2)c(Cl)c1 |
| 0.59 | 1.16 | Cc1cccc2cc(CN(Cc3ccco3)C(=O)c3cccs3)c(=O)[nH]c12 |
| 1.47 | -1.57 | COCCn1c(SCC(=O)Nc2cc(C)on2)nnc1-c1ccco1 |
| 0.36 | 2.53 | COc1ccc(S(=O)(=O)N2CCCC(C(=O)N3CCCC3)C2)cc1OC (stereo unspecified) |
| 0.33 | -0.74 | Cc1ccc(S/C=C\C(=O)c2ccccc2)cc1 |

(list continues)
| KCNQ2 pot | KCNQ2 pot baseline | smiles |
| --- | --- | --- |
| 0.5 | 1.55 | CC(=O)N1CCN(S(=O)(=O)c2c(F)cc(F)c(Cl)c2F)CC1 |
| 0.15 | 0.34 | COc1ccc(-c2nc(C(N)=O)c3[nH]c(=O)n(-c4ccccc4OC)c3n2)c(OC)c1 |
| 1.21 | -1.48 | Cc1ccc2c(c1)N(CCC(=O)NC(C)C)C(=O)CO2 |
| 0.54 | 0.29 | COc1ccc(N(CC(=O)Nc2cccc(N(C)S(C)(=O)=O)c2)S(=O)(=O)c2ccccc2)cc1Cl |
| 1.68 | -0.08 | Cc1cccc(N2CCN(C(=S)Nc3ccc4nc(N5CCN(C)CC5)cc(C)c4c3)CC2C)c1 (stereo unspecified) |
| 0.7 | 0.27 | COc1ccc(NC2CS(=O)(=O)CC2NCc2ccco2)cc1 (stereo unspecified) |
| 1.43 | -0.9 | COC(=O)Cn1cnc2ccccc2c1=O |
| 0.14 | -1.44 | Cc1ccc(N2CC(C(=O)NCc3ccccn3)CC2=O)cc1 (stereo unspecified) |
| 1.02 | -0.58 | O=c1[nH]c2cccc(Cl)c2n(CCNc2ncc(C(F)(F)F)cc2Cl)c1=O |
| 0.95 | 0.24 | CCCCNc1cc(=O)oc2ccccc12 |
| 0.92 | -0.69 | Cc1csc(=O)n1CC(=O)OCc1nnc(-c2ccc(Cl)cc2)o1 |
| 1.69 | 1.24 | CCOC(=O)N1CCC(NC(=O)c2oc3c(F)cccc3c2C)CC1 |
| 1.72 | 0.43 | COc1cc(OC)c(OC)cc1/C=N/Nc1ncnc2c1[nH]c1ccccc12 |
| 1.61 | 0.43 | O=C(OC(C(=O)NCc1cccs1)c1ccccc1F)c1ccco1 (stereo unspecified) |
| 0.3 | -0.4 | Cc1c(C)c2ccc(OCC(=O)N3CCC[C@@H]3C(=O)O)c(C)c2oc1=O |
| 0.99 | -0.02 | Cc1cc(C(=O)NCCCOC(C)C)c2ccccc2n1 |
| 0.86 | 0 | COc1ccc(NC(=O)CCN2CCCCCC2)cc1 |
| 1.18 | 0.13 | COc1ccc(/C(C)=N/NC(=O)CNC(=O)c2ccco2)cc1 |
| 0.17 | -1.57 | COc1cccc(CN(C)C(=O)C2CC(=O)N(c3ccc4c(c3)OCCO4)C2)c1 (stereo unspecified) |
| 0.66 | 0.66 | Cc1ccc(N2CC(C)Cn3c2nc2c3c(=O)n(CC(=O)OCc3ccccc3)c(=O)n2C)cc1C (stereo unspecified) |

(next part)
| KCNQ2 pot | KCNQ2 pot baseline | smiles |
| --- | --- | --- |
| 0.06 | 0 | CCOc1ccc(CNC(=O)CCC(=O)N2CCSc3ccccc32)cc1 |
| 3.84 | -3.1 | CCCOc1ccc(-c2nnn(CC(=O)Nc3cccc(C(=O)OC)c3)n2)cc1 |
| 0.34 | -0.63 | CCCn1c(=O)c2ccccc2n2c(SCc3nc4ccccc4s3)nnc12 |
| 0.01 | -0.57 | O=C(O)c1cccc(Nc2nc3ccccc3nc2NS(=O)(=O)c2cccs2)c1 |
| 0.95 | -0.53 | CC(=O)N[C@H]1[C@H](Oc2ccc3c(c2)CCC2C3CC[C@]3(C)C(=O)CCC23)O[C@H](CO)[C@@H](O)[C@@H]1O (stereo partly specified) |
| 0.52 | 3.06 | CCc1c(O)c(/C(C)=N\O)c(=O)n(-c2ccccc2)c1-c1ccccc1 |
| 1.38 | 0.58 | CCCC(=O)Nc1ccc(N2CCN(C(=O)c3cc4ccccc4o3)CC2)cc1 |
| 0.19 | -0.78 | O=C(NC(=O)c1ccccc1Cl)Nc1ccc(-c2cnco2)cc1 |
| 2.17 | -0.1 | CC(C)C(=O)NC(=O)COC(=O)/C=C/c1cccs1 |
| 1.54 | 1.03 | COc1cccc(C(=O)NCC(=O)NCc2cc(=O)n(C)c(=O)n2C)c1 |
| 0.22 | 0.02 | Cc1ccc(NC(=O)CCC(=O)N/N=C/c2cccs2)cc1C |
| 0.08 | -1 | Cc1nc(N)sc1Cc1ccc2c(c1)OCO2 |
| 0.46 | 0.55 | CC(C)NC(=S)NC(=O)c1ccc(Cl)cc1Cl |
| 0.71 | -0.02 | C/C(=N\NC(=O)c1cccc(S(=O)(=O)N2CCCC2)c1)c1ccco1 |
| 0.2 | -0.1 | COC(=O)c1sc(S(=O)(=O)NCCC(=O)O)c(C(=O)OC)c1C |
| 1.34 | 0.59 | Cc1ccsc1/C=C1\SC(N)=NC1=O |
| 0.05 | -0.05 | C=CCCC(=O)Nc1nc(C)c(-c2csc(Nc3ccc(Cl)cc3Cl)n2)s1 |
| 0.3 | -0.05 | CCn1cc(C(=O)OCC(=O)Nc2ccc(C(C)C)cc2)c(=O)c2ccc(C)nc21 |
| 1.49 | 1.32 | CN1C(=O)CSc2ccc(NC(=O)N3CCN(c4ccccc4)CC3)cc21 |
| 0.56 | 1.94 | O=C1COc2ccc(-c3n[nH]c(=O)c4ccccc34)cc2N1 |

Next structures
| KCNQ2 pot | KCNQ2 pot baseline | smiles |
| --- | --- | --- |
| 0.85 | -0.38 | O=C(CO/N=C/c1c(Cl)cccc1Cl)NNC(=O)c1ccc(Cl)cc1 |
| 0.88 | 0.16 | Cc1cc(NC(=O)C(C)(C)C)no1 |
| 1.47 | -1.59 | C=CCn1c(=O)c2ccccc2n2c(SCC(C)=O)nnc12 |
| 1.14 | -1.55 | CN=c1scc(-c2ccccc2F)n1/N=C/c1ccc[nH]1 |
| 2.86 | -1.61 | CC(C)(C)c1ccc(C(=O)NCc2ccco2)cc1 |
| 1.03 | 1.51 | CCCCNC(=O)CN1C(=O)NC2NC(=O)NC21 (stereo unspecified) |
| 1.13 | -0.64 | COc1cc(NC(=O)CN2C(=O)C(C)N(c3ccc(C)cc3)C2=O)cc(OC)c1 (stereo unspecified) |
| 4.78 | -1.8 | COc1cc(C(=O)Nc2cccnc2)cc(OC)c1OC |
| 0.73 | 0.56 | O=C(CSCc1c(F)cccc1Cl)Nc1cccnc1 |
| 0.94 | 0.07 | CN1CCN(C(=O)/C(=C\c2cccs2)NC(=O)c2cccs2)CC1 |
| 1.6 | 0.53 | COc1cc2ncnc(NCc3cccc(F)c3F)c2cc1OC |
| 0.71 | 1.32 | OC(COc1ccc2ccccc2c1)CN1CCCC1 (stereo unspecified) |
| 0.04 | 0.23 | O=C(CN(CCO)c1ccccc1)Nc1cccc(S(=O)(=O)N2CCCC2)c1 |
| 1.12 | 0.39 | COc1cc2c(=O)n(CC3CCCO3)c(=O)n(CC(=O)Nc3cccc(Cl)c3)c2cc1OC (stereo unspecified) |
| 0.53 | -0.49 | O=S(=O)(Cc1noc(-c2ccc(Cl)cc2)n1)Cc1ccco1 |
| 0.43 | -0.05 | O=C(COC(=O)/C=C/c1ccc(Br)o1)NCCCN1CCCC1=O |
| 0.02 | 0.97 | O=C(CCCOc1ccccc1)N1CCN(S(=O)(=O)c2ccc(Cl)cc2)CC1 |
| 0.01 | 2.08 | CC(C)(C)c1ccc(C(=O)Nc2ccc(S(=O)(=O)Nc3cnc4ccccc4n3)cc2)cc1 |
| 0.72 | -0.03 | COCCCNC(=O)CSc1nc2ccccc2c(=O)n1CCCC(=O)NCC1CCCO1 (stereo unspecified) |
| 0.37 | -1.61 | O=C(c1ccc(C(F)(F)F)cc1)C1CCCN(C(=O)CN2CCCC2=O)C1 (stereo unspecified) |

Next section.
| KCNQ2 pot | KCNQ2 pot baseline | smiles |
| --- | --- | --- |
| 1.67 | -0.03 | CC(C)(C)C(=O)CSc1ncnc2c1cnn2Cc1ccccc1 |
| 0.01 | -0.41 | Fc1ccc(NC(=S)NCc2ccccn2)cc1 |
| 0.14 | 0.09 | O=C(Cc1ccc([N+](=O)[O-])cc1)NCc1ccccc1Cl |
| 0.49 | -1.04 | CCOC(=O)C1(CC)NC(c2ccco2)C2C(=O)N(C)C(=O)C21 (stereo unspecified) |
| 1.34 | 0.28 | Cc1c(CN(C)C(=O)c2nn(C)cc2[N+](=O)[O-])cnn1C |
| 2.03 | -2.99 | CCN(CC)S(=O)(=O)c1ccc(N2CCCC2)c(C(=O)OCC(=O)/C(C#N)=C(\C)N)c1 |
| 0.1 | -0.36 | O=C(/C=C/c1ccccc1)NCCc1nc2ccccc2[nH]1 |
| 1.22 | -2.68 | O=C(C[n+]1cccc(Br)c1)c1cccs1 |
| 2.21 | -0.72 | CCN(CC(=O)NCc1cccs1)S(=O)(=O)c1ccc(C(C)C)cc1 |
| 1.79 | -3.19 | COc1cc(O)c(C(CC(=O)N2CCCCC2)c2ccc3c(c2)OCO3)c(OC)c1 (stereo unspecified) |
| 0.59 | -0.82 | CC(C(=O)Nc1ccccc1)C(=O)Nc1ccccc1 |
| 0.25 | 2.17 | CCc1cccc(C)c1NC(=O)CC(C)(C)CC(=O)O |
| 0.33 | -0.07 | CCOc1ccc(NC(=O)COC(=O)c2cc([N+](=O)[O-])ccc2N2CCOCC2)cc1 |
| 1.04 | 2.15 | CNC(=O)c1ccc(NC(=O)CC23CC4CC(CC(C4)C2)C3)cc1 |
| 1.51 | 0.67 | S=C(Nc1ccccc1)c1nc2ccccc2s1 |
| 0.89 | 0.97 | C#CCNC(=O)C1=C[C@H](c2csc3ccccc23)C[C@H](OCCCCO)O1 |
| 1.96 | 0.56 | Cc1nc(C)c(C(=O)Nc2cccc(F)c2)s1 |
| 2.02 | 0.02 | CC(C)N(C(=O)NC(=O)Nc1ccc(S(=O)(=O)N2CCCC2)cc1)S(C)(=O)=O |
| 0.36 | -0.2 | CC(=O)Oc1ccc(/C=N/NC(=O)CCSc2ccccc2)cc1 |
| 0.01 | -0.75 | CNS(=O)(=O)c1cccc(C(=O)OC2CCCCC2=O)c1 (stereo unspecified) |

The listing continues.
| KCNQ2 pot | KCNQ2 pot baseline | smiles |
| --- | --- | --- |
| 1.46 | 2.34 | Cc1ccnc(N/N=C/c2ccccc2)n1 |
| 1.23 | 0.84 | O=C(CN1CCN(Cc2ccccc2)CC1)NCc1ccc(Cl)cc1 |
| 0.98 | -0.51 | COc1ccc(C(=O)Nc2ccncc2)cc1OC |
| 0.61 | -0.19 | CCn1c(=NC(=O)CN2C(=O)CCC2=O)sc2c(OC)ccc(OC)c21 |
| 0.32 | 0.09 | O=[N+]([O-])c1ccc2nnn(O)c2c1 |
| 0.13 | 0.21 | COC(=O)c1ccc(NC(=O)CN(C)S(=O)(=O)c2ccc(OC)c(C)c2)cc1 |
| 0.65 | 0.83 | Cc1ccn2c(CNC(C)c3cn(C)nc3C)c(C(=O)N3CCCCCC3)nc2c1 (stereo unspecified) |
| 1.45 | -0.53 | COc1ccc2cnn(Cc3ccccc3)c(=O)c2c1OC |
| 1.35 | -1.39 | O=S(CC1CC1(Cl)Cl)CC1CC1(Cl)Cl (stereo unspecified) |
| 0.45 | 0.09 | CCOCCCNCc1ccc(OCc2ccccc2C)c(OC)c1 |
| 2.21 | -1.23 | O=[N+]([O-])c1cc2c(cc1CN1CCN(CCOCCO)CC1)OCO2 |
| 3.36 | -3.49 | COc1ccc(C(c2c(C)n(C)n(-c3ccccc3)c2=O)c2c(C)n(C)n(-c3ccccc3)c2=O)cc1OC |
| 0.91 | 0.14 | S=c1[nH]nc(Cc2sc(-c3ccccc3)nc2-c2ccccc2)o1 |
| 2.21 | -0.92 | Clc1ccc(-c2cnc3n2CCCCC3)cc1 |
| 1.18 | 0.19 | CC(=O)c1sc(-c2ccc(Cl)cc2)nc1C |
| 1.59 | -0.11 | CC1Cc2ccccc2N1C(=O)Cn1cc([N+](=O)[O-])cn1 (stereo unspecified) |
| 0.68 | -0.01 | FC(F)(F)c1ccccc1N/N=C/c1cccnc1 |
| 0.33 | 0.69 | CCCN1CCN(C(=O)Cn2c(=O)oc3cc(S(=O)(=O)NCc4ccccc4)ccc32)CC1 |
